Assay outcomes as filed in PubChem BioAssay.
Yeast UUG start: alters start codon recognition fidelity in yeast; S. cerevisiae UUG-firefly luciferase reporter, luminescence/redox ratio; activity score, % at 18.7 µM; 350,000 compounds, 0.13% hits; AID 602363;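 active = replicate mean at a twofold rise or more, about +100% in these data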;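 also: firefly luciferase made from a UUG start codon reports start codon fidelity; reporter light over untreated wells divided by growth signal over untreated wells; some hits fall short of that in this replicate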
* hit, by the source's call.

| Molecule | Yeast UUG start |
| --- | --- |
| Cc1ccc(S(=O)(=O)Nc2ccc3c(c2)CC(=O)N([C@@H](C)CO)C[C@H](C)[C@H](CN(C)CC2CC2)O3)cc1 | 11.1 |
| Cc1noc(C)c1NC(=O)N(C)C[C@H]1Oc2ccc(NS(=O)(=O)c3cccs3)cc2C(=O)N([C@@H](C)CO)C[C@@H]1C | 5.5 |
| C[C@@H]1CN([C@H](C)CO)C(=O)c2cc(NS(C)(=O)=O)ccc2O[C@@H]1CN(C)Cc1ccc(-c2ccccc2)cc1 | 13.7 |
| C[C@H](CO)N1C[C@H](C)[C@@H](CN(C)C(=O)NC2CCCCC2)Oc2c(NS(=O)(=O)c3ccc(Cl)cc3)cccc2C1=O | -0.7 |
| O=C(Nc1ccc(F)cc1)N1C[C@H]2[C@@H](c3ccccc31)[C@@H](CO)N2C(=O)c1ccc(F)cc1 | -9.0 |
| O=C(NC[C@H]1[C@H](c2ccccc2)[C@H](CO)N1C(=O)Cc1ccncc1)C1CCC1 | -2.0 |
| COc1ccccc1S(=O)(=O)N1C[C@H](O)COC[C@H]2O[C@H](CC(=O)O)CC[C@@H]21 | -15.9 |
| C[C@@H]1CN([C@@H](C)CO)C(=O)c2cc(NS(=O)(=O)c3ccc(Cl)cc3)ccc2O[C@@H]1CN(C)C | 11.2 |
| CCCC#Cc1ccc([C@H]2[C@H]3CN(CC4CC4)CCCCN3[C@H]2CO)cc1 | -4.9 |
| C[C@H](CO)N1C[C@H](C)[C@H](CN(C)S(=O)(=O)c2ccccc2)Oc2ccc(NC(=O)Nc3ccc(F)cc3)cc2C1=O | -10.9 |
| CN(C)C(=O)c1cccc(-c2ccc3c(c2)[C@H]2[C@H](CCN2C(=O)c2cccc(F)c2)[C@@H](CO)N3C)c1 | -6.0 |
| C[C@@H]1CN([C@H](C)CO)C(=O)Cc2cc(NC(=O)CCC(F)(F)F)ccc2O[C@H]1CN(C)Cc1ccc(C(=O)O)cc1 | -17.8 |
| CO[C@@H]1CN(C)C(=O)c2ccc(NS(=O)(=O)c3ccccc3C)cc2OC[C@H](C)NC[C@@H]1C | 15.2 |
| COc1ccccc1S(=O)(=O)N1CC[C@@H]2[C@@H](CO)Nc3ccc(Br)cc3[C@@H]21 | -12.1 |
| N#Cc1cccc(-c2ccc3c(c2)[C@@H]2[C@@H](CCN2Cc2cncnc2)[C@H](CO)N3)c1 | -11.4 |
| CC(C)NC(=O)N(C)C[C@H]1Oc2ccc(NS(=O)(=O)c3ccc(F)cc3)cc2CC(=O)N([C@H](C)CO)C[C@@H]1C | 4.6 |
| COc1ccc(NC(=O)N2C[C@H](O)COC[C@H]3O[C@H](CC(=O)N4CCN(C)CC4)CC[C@@H]32)cc1 | -0.3 |
| CC(C)NC(=O)N1[C@H](CO)[C@@H]2c3ccccc3N(C(=O)C3CCCCC3)C[C@@H]21 | -4.5 |
| O=C(c1cccnc1)N1CC[C@@H]2[C@H](CO)Nc3ccc(-c4ccc(F)cc4)cc3[C@@H]21 | -15.4 |
| C[C@H](CO)N1C[C@H](C)[C@@H](CN(C)Cc2ccc(Oc3ccccc3)cc2)Oc2c(NS(=O)(=O)c3cccs3)cccc2C1=O | -6.0 |

| Molecule | Yeast UUG start |
| --- | --- |
| OC[C@@H]1[C@@H](c2ccc(-c3cccc(F)c3)cc2)[C@H]2CN(Cc3cncnc3)CCCCN12 | -12.6 |
| COc1ccc(NC(=O)Nc2ccc3c(c2)C(=O)N([C@H](C)CO)C[C@@H](C)[C@@H](CN(C)S(C)(=O)=O)O3)cc1 | 2.9 |
| CCC(=O)Nc1ccc2c(c1)OC[C@@H](C)N(Cc1ccccn1)C[C@@H](C)[C@@H](OC)CN(C)C2=O | -16.5 |
| CN1CCCCN2[C@H](C1)[C@@H](c1ccc(C#CC3(O)CCCC3)cc1)[C@@H]2CO | 11.8 |
| O=C(c1cccnc1)N1C[C@H]2[C@@H](c3ccccc31)[C@@H](CO)N2CC1CCCC1 | 53.6 |
| CO[C@@H]1CN(C)C(=O)c2ccc(NS(=O)(=O)c3ccccc3)cc2OC[C@@H](C)N(C)C[C@H]1C | 4.3 |
| COc1ccc(NC(=O)N2C[C@@H]3[C@H](c4ccccc42)[C@H](CO)N3C(=O)C2CCCC2)cc1 | 35.6 |
| COc1ccc(CNC(=O)C[C@@H]2C[C@H]3c4cc(NS(C)(=O)=O)ccc4O[C@H]3[C@@H](CO)O2)cc1 | -11.0 |
| C[C@@H]1CN([C@@H](C)CO)C(=O)Cc2cc(NS(=O)(=O)c3ccc(Cl)cc3)ccc2O[C@@H]1CN(C)C(=O)NC1CCCCC1 | 3.4 |
| O=C(C1CC1)N1CCCCN2[C@H](CO)[C@@H](c3ccc(C#CC4CC4)cc3)[C@@H]2C1 | 0.7 |
| CC(=O)N1[C@H](CO)[C@H](c2ccccc2)[C@@H]1CN(C(=O)c1ccc(F)cc1)C(C)C | -21.9 |
| C[C@H]1CN([C@@H](C)CO)C(=O)c2cc(NC(=O)C3CC3)ccc2O[C@@H]1CN(C)Cc1ccc(Cl)c(Cl)c1 | 11.6 |
| CCCNC(=O)C[C@@H]1CC[C@H]2[C@H](COc3ccc(NC(=O)c4ccc(C(F)(F)F)cc4)cc3C(=O)N2C)O1 | 3.8 |
| CN(C)C(=O)c1ccc(-c2ccc([C@@H]3[C@@H](CO)N4CCCCN(Cc5cccnc5)C[C@H]34)cc2)cc1 | -9.2 |
| COc1ccccc1-c1ccc([C@@H]2[C@@H](CO)N3CCCCN(C(=O)NC4CCCC4)C[C@H]23)cc1 | 10.4 |
| COCC(=O)Nc1ccc2c(c1)C(=O)N(C)C[C@@H](OC)[C@@H](C)CN(C(=O)c1ccccn1)[C@@H](C)CO2 | -14.0 |
| C/C=C/c1ccc([C@@H]2[C@@H](CN(CC)C(=O)CC)N(S(C)(=O)=O)[C@H]2CO)cc1 | 10.3 |
| Cc1ccccc1S(=O)(=O)N(C)C[C@@H]1OCc2ccccc2-c2c(n(C)c3ccccc23)C(=O)N([C@@H](C)CO)C[C@@H]1C | -1.0 |
| COCC(=O)N1CCCCN2[C@H](CO)[C@H](c3ccc(-c4ccc(F)cc4)cc3)[C@@H]2C1 | -9.4 |
| C[C@H]1CN([C@@H](C)CO)C(=O)Cc2cc(NS(=O)(=O)c3ccc(Cl)cc3)ccc2O[C@@H]1CN(C)Cc1ccncc1 | -1.2 |

| Molecule | Yeast UUG start |
| --- | --- |
| CN1c2ccc(-c3ccc(F)cc3)cc2[C@H]2[C@H](CCN2S(=O)(=O)c2ccc(F)cc2)[C@@H]1CO | -16.7 |
| CN1c2ccc(-c3ccc(C#N)cc3)cc2[C@@H]2[C@@H](CCN2S(=O)(=O)c2cccc(F)c2)[C@@H]1CO | 2.9 |
| O=C(Cc1ccncc1)N1CC[C@@H]2[C@H]1c1cc(-c3ccccc3F)ccc1N[C@@H]2CO | -4.1 |
| C[C@H](CO)N1C[C@H](C)[C@@H](CN(C)S(=O)(=O)c2ccc(F)cc2)Oc2c(cccc2N(C)C)C1=O | 9.7 |
| C[C@H](NC(=O)C[C@@H]1CC[C@H]2[C@@H](COC[C@@H](O)CN2C(=O)Nc2cc(Cl)cc(Cl)c2)O1)c1ccccc1 | 21.7 |
| COCC(=O)N1C[C@H](C)[C@H](OC)CN(C)C(=O)c2cc(NC(=O)c3cnccn3)ccc2OC[C@@H]1C | 9.1 |
| C[C@H](NC(=O)C[C@H]1C[C@@H]2c3cc(NC(=O)C4CCC4)ccc3O[C@@H]2[C@@H](CO)O1)c1ccccc1 | 8.8 |
| CO[C@@H]1CN(C)C(=O)c2ccc(NC(=O)c3cnccn3)cc2OC[C@@H](C)N(C(C)=O)C[C@H]1C | -1.1 |
| C[C@H]1CN([C@@H](C)CO)C(=O)c2cccc(NC(=O)C3CCCCC3)c2O[C@H]1CN(C)C(=O)Nc1ccccc1 | 4.3 |
| CNC[C@H]1Oc2c(NC(=O)Nc3ccc(F)cc3)cccc2C(=O)N([C@@H](C)CO)C[C@@H]1C | -8.8 |
| C[C@H](CO)N1C[C@H](C)[C@@H](CN(C)Cc2ccc(-c3ccccc3)cc2)Oc2ccc(NS(=O)(=O)c3ccc(F)cc3)cc2C1=O | -0.6 |
| C[C@H](CO)N1C[C@H](C)[C@@H](CN(C)Cc2ccc(C(F)(F)F)cc2)Oc2c(NC(=O)c3ccc(-c4nccs4)cc3)cccc2C1=O | -8.0 |
| Cc1ccc(S(=O)(=O)Nc2ccc3c(c2)C(=O)N([C@@H](C)CO)C[C@@H](C)[C@H](CN(C)Cc2ccc(Cl)c(Cl)c2)O3)cc1 | 9.7 |
| Cc1cccc(S(=O)(=O)N2CCCCN3[C@H](CO)[C@@H](c4ccc(C#CC(C)C)cc4)[C@@H]3C2)c1 | -6.3 |
| CN1c2ccc(Br)cc2[C@@H]2[C@@H](CCN2C(=O)Nc2ccccc2F)[C@@H]1CO | -5.2 |
| C[C@H]1CN([C@@H](C)CO)C(=O)c2cccc(NC(=O)C3CCCCC3)c2O[C@@H]1CN(C)C(=O)Nc1ccc2c(c1)OCO2 | -0.3 |
| CN(C)C(=O)c1cccc(-c2ccc([C@H]3[C@H]4CN(S(C)(=O)=O)CCCCN4[C@H]3CO)cc2)c1 | -7.5 |
| COc1cccc(-c2ccc([C@H]3[C@H](CO)N4CCCCN(Cc5cncnc5)C[C@@H]34)cc2)c1 | -17.1 |
| OC[C@H]1[C@H](c2ccc(-c3ccccc3F)cc2)[C@@H]2CN(Cc3cccnc3)CCCCN12 | -18.0 |
| Cn1cnc(S(=O)(=O)N2CCCCN3[C@@H](CO)[C@H](c4ccc(C#CC5CCCC5)cc4)[C@@H]3C2)c1 | 12.0 |

The last 4 entries of the section above open the next one.
| Molecule | Yeast UUG start |
| --- | --- |
| CN(C)C(=O)c1cccc(-c2ccc([C@H]3[C@H]4CN(S(C)(=O)=O)CCCCN4[C@H]3CO)cc2)c1 | -7.5 |
| COc1cccc(-c2ccc([C@H]3[C@H](CO)N4CCCCN(Cc5cncnc5)C[C@@H]34)cc2)c1 | -17.1 |
| OC[C@H]1[C@H](c2ccc(-c3ccccc3F)cc2)[C@@H]2CN(Cc3cccnc3)CCCCN12 | -18.0 |
| Cn1cnc(S(=O)(=O)N2CCCCN3[C@@H](CO)[C@H](c4ccc(C#CC5CCCC5)cc4)[C@@H]3C2)c1 | 12.0 |
| CN1c2ccc(-c3cccc(C#N)c3)cc2[C@H]2[C@H](CCN2S(=O)(=O)c2ccccc2F)[C@H]1CO | 0.1 |
| C[C@H](CO)N1C[C@H](C)[C@@H](CN(C)Cc2ccc(Cl)c(Cl)c2)Oc2ccc(NC(=O)C3CCCCC3)cc2C1=O | -4.3 |
| CN(C)C(=O)C[C@H]1C[C@@H]2c3cc(NC(=O)Nc4ccc(C(F)(F)F)cc4)ccc3O[C@@H]2[C@@H](CO)O1 | 18.1 |
| COc1ccccc1NC(=O)N1CCCCN2[C@@H](CO)[C@H](c3ccc(-c4cccc(C)c4)cc3)[C@@H]2C1 | 12.6 |
| CCN1[C@H](C(=O)NC2CCC2)[C@@H](CO)[C@@H]2Cn3c(ccc(-c4ccccc4F)c3=O)[C@@H]21 | -1.2 |
| C[C@@H]1CN([C@@H](C)CO)C(=O)c2cccc(NC(=O)c3nc4ccccc4s3)c2O[C@H]1CN(C)Cc1ccncc1 | 0.0 |
| C[C@@H]1CN([C@H](C)CO)C(=O)Cc2cc(NS(=O)(=O)c3ccc(Cl)cc3)ccc2O[C@H]1CN(C)C | 0.6 |
| COc1ccc(CN(C)C[C@H]2Oc3c(NS(=O)(=O)c4ccc(C)cc4)cccc3C(=O)N([C@H](C)CO)C[C@@H]2C)cc1 | 1.0 |
| Cc1noc(C)c1NC(=O)Nc1ccc2c(c1)C(=O)N([C@@H](C)CO)C[C@@H](C)[C@@H](CN(C)Cc1ccc(C(=O)O)cc1)O2 | -7.9 |
| COc1cccc(S(=O)(=O)N2CCCCN3[C@H](CO)[C@H](c4ccc(-c5ccncc5)cc4)[C@@H]3C2)c1 | -14.1 |
| Cc1ccc(-c2ccc([C@H]3[C@@H](CO)N4CCCCN(S(=O)(=O)c5cccc(C)c5)C[C@H]34)cc2)cc1 | -6.2 |
| CO[C@@H]1CN(C)C(=O)c2cc(NC(=O)C3CC3)ccc2OC[C@H](C)N(C(=O)c2cnccn2)C[C@H]1C | 1.8 |
| O=C(C[C@H]1CC[C@H]2[C@@H](COC[C@@H](O)CN2S(=O)(=O)c2ccc(F)cc2)O1)N1CCc2ccccc2C1 | 22.8 |
| O=C([C@H]1[C@H](CO)[C@H]2Cn3c(ccc(-c4ccccc4F)c3=O)[C@@H]1N2C(=O)C1CCC1)N1CCOCC1 | -2.2 |
| CCC(=O)N1C[C@@H](C)[C@H](OC)CN(C)C(=O)c2cc(NC(=O)Nc3ccc(Cl)cc3)ccc2OC[C@H]1C | -8.3 |
| CCCN1C[C@H](C)[C@H](OC)CN(C)C(=O)c2cc(NC(=O)c3cccc(F)c3)ccc2OC[C@@H]1C | 4.1 |
| CCC(=O)NC[C@@H]1[C@H](c2ccc(C3=CCCC3)cc2)[C@@H](CO)N1C(C)=O | 16.5 |
| COCCNC(=O)C[C@H]1CC[C@H]2[C@@H](COc3ccc(NC(=O)C4CCOCC4)cc3C(=O)N2C)O1 | -3.9 |
| COCC(=O)Nc1ccc2c(c1)OC[C@H](C)N(Cc1ccccn1)C[C@@H](C)[C@@H](OC)CN(C)C2=O | -5.7 |
| COc1ccc(S(=O)(=O)N(C)C[C@@H]2Oc3ccc(NC(=O)Cc4ccccc4)cc3C(=O)N([C@H](C)CO)C[C@H]2C)cc1 | 4.7 |

| Molecule | Yeast UUG start |
| --- | --- |
| CCC(=O)Nc1ccc2c(c1)OC[C@@H](C)N(Cc1ccccc1OC)C[C@H](C)[C@H](OC)CN(C)C2=O | 5.9 |
| CC(=O)N1[C@H](CO)[C@H](c2ccc(C3=CCCCC3)cc2)[C@@H]1CNC(=O)CN(C)C | 14.7 |
| Cc1cccc(S(=O)(=O)N2CCCCN3[C@H](CO)[C@@H](c4ccc(C#CC5CC5)cc4)[C@@H]3C2)c1 | 21.9 |
| COc1ccc(CNC(=O)C[C@H]2C[C@@H]3c4cc(NS(C)(=O)=O)ccc4O[C@@H]3[C@@H](CO)O2)cc1 | -1.1 |
| Cc1ccc(S(=O)(=O)N2C[C@@H](O)COC[C@@H]3O[C@@H](CC(=O)NCC4CCCCC4)CC[C@H]32)cc1 | 23.7 |
| Cc1ccc(S(=O)(=O)N(C)C[C@@H]2Oc3ccc(NC(=O)Nc4ccccc4)cc3CC(=O)N([C@H](C)CO)C[C@@H]2C)cc1 | 6.2 |

Not all compounds are listed (hit frequency here may not be typical).
